Screening data as filed in PubChem.
MLL AF4-AF9 inh – inhibitors of AF4 peptide binding to AF9, primary screen, biochemical, AlphaScreen, biotin-AF4 peptide, FLAG-AF9, single point. AID 651704, 2012. inhibition, % at 10 µM. hit rate 0.47% among 350,000. Protein AF-9 (Homo sapiens), P42568;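 active = every replicate reaching a set inhibition limit, whatever the replicate mean, cut at about 25% in these data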;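 note: 0% = plate neutral control median and 100% = total signal loss; the record names both 10 and 1 µM as test concentration; the first replicate is given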
Target sequence (P42568 whole entry, looked up): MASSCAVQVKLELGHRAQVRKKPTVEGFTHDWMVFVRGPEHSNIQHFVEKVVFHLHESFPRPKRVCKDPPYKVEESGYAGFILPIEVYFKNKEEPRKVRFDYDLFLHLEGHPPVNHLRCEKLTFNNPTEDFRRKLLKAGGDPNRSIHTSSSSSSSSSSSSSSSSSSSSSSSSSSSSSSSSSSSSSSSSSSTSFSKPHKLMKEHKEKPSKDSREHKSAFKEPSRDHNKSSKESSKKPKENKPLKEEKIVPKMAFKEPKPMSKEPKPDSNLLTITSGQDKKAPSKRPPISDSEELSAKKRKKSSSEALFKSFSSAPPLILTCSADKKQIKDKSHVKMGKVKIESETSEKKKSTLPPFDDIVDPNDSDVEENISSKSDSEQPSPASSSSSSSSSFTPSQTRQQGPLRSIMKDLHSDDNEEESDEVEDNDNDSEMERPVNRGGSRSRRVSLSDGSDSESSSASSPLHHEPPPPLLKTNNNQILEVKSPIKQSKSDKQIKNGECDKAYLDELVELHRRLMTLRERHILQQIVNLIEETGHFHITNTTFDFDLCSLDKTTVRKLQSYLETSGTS
rRNA inh HTS – reduced GFP signal of wild-type E. coli, primary screen, bacterial rRNA inhibitor project, GFP/RFP fluorescence, OD600, single point; hit rate 1.6% among 350,000; E. coli WT GFP vs humanized-ribosome RFP mutants, 24 h; hits give low values; DMSO median 0, no signal -100; GFP signal change (wild-type ribosome), % (no concentration beside the values);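 active = significant combined selectivity score with lowered wild-type GFP, culture density cut under 30%, mutant RFP and density less affected; inactive = any of these conditions unmet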; note: one replicate is shown; some compounds called inactive have numbers as strong as hits
rRNA inh HTS OD600 – further read-out of rRNA inh HTS, marked with its call; OD600 change, %; measured here: OD600 growth;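 optical density of the mix in the first replicate; 0 = DMSO median and -100 = no signal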
rRNA inh HTS RFP – recorded beside rRNA inh HTS, whose call it bears; RFP signal change, %; measured here: RFP humanized mutant strains;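 first replicate; 0 = DMSO median and -100 = no signal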
Starred values were filed as active, the others as inactive. Only part of the results is shown (hit frequency here may not be typical).

MLL AF4-AF9 inh	rRNA inh HTS	rRNA inh HTS OD600	rRNA inh HTS RFP	mol
0.3	-6.7	-12.9	-1.2	CC(=O)c1ccc(S(=O)(=O)NCC2CCN(C(=O)C(=O)c3cccs3)CC2)cc1
1.3	-7.0	-19.4	7.4	Cc1ccc(-c2ccc3c(c2)O[C@@H](CN(C)S(C)(=O)=O)[C@@H](C)CN([C@H](C)CO)S3(=O)=O)cc1
-5.9	3.8	-38.7	-0.8	O=C(Nc1c(-c2ccccc2)[nH][nH]c1=O)c1ccc(Br)cc1
1.5	-4.1	-3.2	-2.6	CCC(=O)N1C[C@@H]2[C@H](c3ccccc31)[C@@H](CO)N2Cc1ccccc1Cl
-1.5	-3.3	5.0	-2.1	C[C@@H]1CN([C@H](C)CO)C(=O)c2cc(-c3cccc(F)c3)cnc2O[C@H]1CN(C)C(=O)c1ccccn1
-8.0	-3.9	-0.5	-0.7	O=C(N[C@H]1C=C[C@H](CC(=O)N2CCC(Cc3ccccc3)CC2)O[C@H]1CO)c1cnccn1
2.5	3.2	5.5	-1.4	COc1ccc(S(=O)(=O)N(C)C[C@@H]2Oc3c(NC(=O)Nc4cccc5ccccc45)cccc3C(=O)N([C@@H](C)CO)C[C@@H]2C)cc1
1.0	3.9	10.2	-0.2	COCC(=O)Nc1ccc2c(c1)C(=O)N(C)[C@H]1CC[C@@H](CC(=O)NCC3CC3)O[C@H]1CO2
-1.6	-0.3	-0.4	-3.4	CNC(=O)C[C@@H]1CC[C@H]2[C@@H](COC[C@H](O)CN2Cc2ccc(C(F)(F)F)cc2)O1
-2.1	-2.0	-13.4	-1.8	Cc1ccc(S(=O)(=O)N2C[C@H](O)COC[C@H]3O[C@H](CC(=O)NCCCN(C)C)CC[C@@H]32)cc1
3.0	-0.8	6.1	-1.1	COc1cccc(NC(=O)C[C@@H]2CC[C@@H]3[C@H](COc4ccc(NC(=O)C5CC5)cc4C(=O)N3C)O2)c1
-3.0	3.7	11.6	-1.2	CC(=O)N(C)C[C@H]1Oc2ncc(C#CC3(O)CCCC3)cc2C(=O)N([C@@H](C)CO)C[C@@H]1C
0.2	1.8	-4.1	0.7	CCC(=O)N1C[C@H](C)[C@H](OC)CN(C)C(=O)c2cc(NC(=O)CC(F)(F)F)ccc2OC[C@@H]1C
-0.5	2.4	6.1	0.3	C/C=C/c1ccc([C@H]2[C@@H](CO)N(C(=O)CC)[C@@H]2CNCC2CCCC2)cc1
2.8	3.6	-2.2	2.4	C[C@@H]1CCCCO[C@H](CN(C)Cc2ccc3c(c2)OCO3)[C@@H](C)CN([C@@H](C)CO)C(=O)c2cc(NS(=O)(=O)c3ccccc3)ccc2O1
-2.5	8.4	14.2	2.4	CNC[C@H]1Oc2ccc(NS(=O)(=O)c3ccccc3)cc2C(=O)N([C@H](C)CO)C[C@@H]1C
-1.8	1.4	4.7	-1.8	C[C@H](CO)N1C[C@H](C)[C@@H](CN(C)Cc2ccccn2)Oc2ncc(C#C[C@@H](C)O)cc2C1=O
-3.6	-4.9	1.8	-3.6	C[C@@H]1CCCCO[C@H](CN(C)C(=O)Nc2ccccc2)[C@H](C)CN([C@@H](C)CO)C(=O)c2cc(NS(C)(=O)=O)ccc2O1
-0.2	-3.8	-4.2	-1.2	C[C@H]1CN([C@@H](C)CO)C(=O)CCCn2nncc2CO[C@@H]1CN(C)C(=O)OCc1ccccc1
-7.3	-2.9	-3.1	1.2	COc1ccc(NC(=O)N(C)C[C@@H]2OCCCC[C@H](C)Oc3ccc(NS(=O)(=O)c4cccs4)cc3C(=O)N([C@H](C)CO)C[C@H]2C)cc1
-3.4	-0.1	3.1	1.5	O=C(C1CCCCC1)N1CC(=O)N2[C@H](CO)[C@@H](c3ccc(Br)cc3)[C@H]2C1
-1.1	-5.4	-6.4	3.3	COc1ccc(S(=O)(=O)N(C)C[C@@H]2Oc3ccc(NC(=O)Nc4ccccc4)cc3C(=O)N([C@@H](C)CO)C[C@H]2C)cc1
-6.4	-0.7	6.0	1.1	COc1ccccc1NC(=O)N1C[C@H](O)COC[C@@H]2O[C@@H](CC(=O)NCc3ccccc3)CC[C@H]21
5.9	-2.6	-8.3	1.2	C[C@@H]1CN([C@H](C)CO)C(=O)c2cc(/C=C/c3ccccc3)cnc2O[C@@H]1CN(C)S(=O)(=O)c1cccs1
-1.3	-3.3	9.3	0.9	COc1cccc(NC(=O)N(C)C[C@H]2Oc3ncc(C#Cc4ccccc4)cc3C(=O)N([C@@H](C)CO)C[C@H]2C)c1
-2.6	2.0	2.9	0.3	C[C@@H]1CCCCO[C@@H](CN(C)S(=O)(=O)c2ccc(Cl)cc2)[C@@H](C)CN([C@@H](C)CO)C(=O)c2cc(NC(=O)C3CCCCC3)ccc2O1
-1.8	0.4	1.2	-3.0	CCCNC(=O)[C@@H]1[C@@H](CO)[C@@H]2Cn3c(ccc(C4=CCCCC4)c3=O)[C@H]1N2CCC
-0.7	5.0	3.5	-0.6	CCCS(=O)(=O)NC(=O)C1(C)CCN(C(=O)c2c(-c3ccccc3)noc2C)C1 (configuration not stated)
-3.5	3.1	3.5	0.6	Cc1nn(C)cc1NC(=O)C[C@H]1CC[C@H]2[C@H](COc3ccc(NC(=O)C4CCOCC4)cc3C(=O)N2C)O1
-2.9	0.7	-3.7	-2.6	CN1CCN(C(=O)C[C@@H]2CC[C@H]3[C@H](COc4ccc(NC(=O)C5CCCC5)cc4C(=O)N3C)O2)CC1

Four compounds out of the list, ordered by SMILES length, largest number first:
MLL AF4-AF9 inh	rRNA inh HTS	rRNA inh HTS OD600	rRNA inh HTS RFP	mol
-1.3	-3.3	9.3	0.9	COc1cccc(NC(=O)N(C)C[C@H]2Oc3ncc(C#Cc4ccccc4)cc3C(=O)N([C@@H](C)CO)C[C@H]2C)c1
-2.9	0.7	-3.7	-2.6	CN1CCN(C(=O)C[C@@H]2CC[C@H]3[C@H](COc4ccc(NC(=O)C5CCCC5)cc4C(=O)N3C)O2)CC1
-1.8	1.4	4.7	-1.8	C[C@H](CO)N1C[C@H](C)[C@@H](CN(C)Cc2ccccn2)Oc2ncc(C#C[C@@H](C)O)cc2C1=O
-8.0	-3.9	-0.5	-0.7	O=C(N[C@H]1C=C[C@H](CC(=O)N2CCC(Cc3ccccc3)CC2)O[C@H]1CO)c1cnccn1

Single values from the results shown:
COCC(=O)Nc1ccc2c(c1)C(=O)N(C)[C@H]1CC[C@@H](CC(=O)NCC3CC3)O[C@H]1CO2 – rRNA inh HTS RFP: -0.2
CCCNC(=O)[C@@H]1[C@@H](CO)[C@@H]2Cn3c(ccc(C4=CCCCC4)c3=O)[C@H]1N2CCC – rRNA inh HTS OD600: 1.2

(more compounds)
MLL AF4-AF9 inh	rRNA inh HTS	rRNA inh HTS OD600	rRNA inh HTS RFP	mol
2.2	0.1	1.0	-0.2	O=C(CCN1CCCCC1)N[C@H]1CC[C@@H](CCn2cc(-c3ccccc3)nn2)O[C@H]1CO
1.7	-1.5	-5.2	5.3	COC(=O)C[C@H]1CC[C@@H]2[C@H](COc3ccc(NC(=O)Nc4cc(C)cc(C)c4)cc3C(=O)N2C)O1
1.3	10.7	5.0	5.9	CNc1cccc(-c2ccccc2CO)n1
-0.8	0.1	10.4	1.6	C[C@@H]1CN([C@@H](C)CO)C(=O)c2cccc(NC(=O)c3cnccn3)c2O[C@H]1CN(C)C(=O)Nc1ccc(C(F)(F)F)cc1
-1.0	4.1	-3.3	0.0	C[C@@H]1CN([C@@H](C)CO)C(=O)Cc2cc(NC(=O)Nc3ccc4c(c3)OCO4)ccc2O[C@@H]1CN(C)Cc1ccc(-c2ccccc2)cc1
-4.0	3.0	2.8	-2.3	CN(C)CCCNC(=O)[C@@H]1[C@@H](CO)[C@@H]2Cn3c(ccc(-c4ccncc4)c3=O)[C@H]1N2C(=O)CC1CC1
0.4	-3.0	4.0	-2.5	CO[C@H]1CN(C)C(=O)c2ccc(NC(=O)C3CCC3)cc2OC[C@@H](C)N(Cc2cccnc2)C[C@H]1C
-1.9	3.2	-0.8	0.0	CO[C@H]1CN(C)C(=O)c2ccc(NS(=O)(=O)c3cn(C)cn3)cc2OC[C@H](C)N(C)C[C@H]1C
-10.6	4.7	15.9	11.2	COc1cc(C)ccc1S(=O)(=O)NC(=O)C1(C)CCN1C(=O)Cc1ccc(C(C)(C)C)cc1 (configuration not stated)
-0.5	-0.5	-1.4	-1.3	COc1ccc(S(=O)(=O)N(C)C[C@H]2Oc3c(NS(C)(=O)=O)cccc3C(=O)N([C@H](C)CO)C[C@H]2C)cc1
-1.1	5.2	3.4	-0.4	Cn1cnc(S(=O)(=O)N[C@H]2C=C[C@@H](CC(=O)Nc3ccccc3)O[C@@H]2CO)c1
-0.3	3.4	10.6	-1.0	CN1C(=O)c2cc(NS(=O)(=O)c3ccc(F)cc3)ccc2OC[C@H]2O[C@@H](CC(=O)O)CC[C@@H]21
-0.6	-1.2	-2.0	-5.4	O=C(NCC(F)(F)F)[C@@H]1[C@@H](CO)[C@@H]2Cn3c(ccc(-c4cccnc4)c3=O)[C@H]1N2Cc1ccccc1
-2.5	1.3	-1.2	-0.1	CN1CCN(C(=O)C[C@H]2CC[C@@H]3[C@H](COc4ccc(NC(=O)c5cscn5)cc4C(=O)N3C)O2)CC1
-0.3	-1.4	-1.0	-1.8	COc1ccc(S(=O)(=O)N(C)C[C@H]2Oc3ccc(NC(=O)CCC(F)(F)F)cc3C(=O)N([C@@H](C)CO)C[C@@H]2C)cc1
-2.3	-6.7	1.4	1.4	Cc1ccccc1-c1cnc2c(c1)C(=O)N([C@H](C)CO)C[C@H](C)[C@@H](CN(C)C(=O)c1ccccc1)O2
-2.2	5.4	5.0	-3.8	Nc1ncnc2c1ncn2[C@@H]1O[C@H](CNC(=O)[C@H](N)Cc2cccnc2)[C@@H](O)[C@H]1O
0.1	8.7	-11.9	2.4	N#Cc1ccc(-c2ccc3c(c2)[C@@H]2[C@@H](CCN2C(=O)Cc2ccccc2)[C@@H](CO)N3)cc1
-1.6	1.2	0.5	2.6	Cc1ccc(S(=O)(=O)Nc2ccc3c(c2)C(=O)N([C@H](C)CO)C[C@@H](C)[C@H](CN(C)C(=O)Cc2ccccc2)OCCCC[C@@H](C)O3)cc1
-0.7	-1.8	13.5	-1.4	CNc1cc(-c2cnn(CC(C)C)c2)ncn1
-5.7	11.2	16.2	3.6	OC[C@@H]1CN(Cc2ccco2)C[C@H](n2cnc3c(NC4CC4)ncnc32)O1
-2.6	-0.2	2.8	-3.1	CO[C@@H]1CN(C)C(=O)c2ccc(NS(C)(=O)=O)cc2OC[C@H](C)N(C)C[C@H]1C
0.3	-0.8	-9.0	-2.2	O=C(C1CCCCC1)N1C[C@H]2[C@@H](c3ccccc31)[C@H](CO)N2C(=O)c1ccccc1
0.2	0.1	5.9	-3.2	COc1ccc2c3c([nH]c2c1)[C@H](CO)N(C(=O)CC1CC1)CC31CN(C(=O)CC2CC2)C1
9.1	-0.2	-2.6	1.9	C[C@H](CO)N1C[C@H](C)[C@H](CN(C)Cc2ccc3c(c2)OCO3)Oc2ccc(NC(=O)Cc3cn(C)c4ccccc34)cc2C1=O
1.0	-1.3	6.7	-4.0	COc1ccccc1NC(=O)N1C[C@@H]2[C@H](c3ccccc31)[C@H](CO)N2C(=O)c1ccccc1
0.2	-0.2	-11.7	3.6	CC(C)C[C@H]1CN([C@@H](Cc2ccccc2)CN2CCC[C@H]2CN2C(=O)C(=O)NC[C@@H]2Cc2ccccc2)C(=O)C(=O)N1CC1CCCCCC1
4.2	-23.1	-29.9	2.0	CCCN(CCC)Cc1cc(=O)oc2ccc3ccccc3c12
0.7	2.4	14.0	1.8	CC(=O)N1CC(=O)N2[C@H](CO)[C@@H](c3ccc(C#CC(C)C)cc3)[C@H]2C1
-4.4	-9.4	-4.6	-0.4	O=C(C[C@@H]1C[C@H]2c3cc(NC(=O)c4ccc5c(c4)OCO5)ccc3O[C@H]2[C@H](CO)O1)NCc1cccc(F)c1
4.3	-0.7	-3.0	1.7	C[C@@H]1CN([C@@H](C)CO)C(=O)c2cccc(NC(=O)Nc3ccc(F)cc3)c2O[C@@H]1CN(C)Cc1ccc2c(c1)OCO2
-0.9	-3.1	-5.0	1.4	COc1cccc(-c2ccc([C@H]3[C@@H](CO)N4C(=O)CN(C(=O)C5CCCC5)C[C@@H]34)cc2)c1
8.4	0.1	0.3	1.9	C[C@@H]1CCCCO[C@H](CN(C)CC2CCCCC2)[C@@H](C)CN([C@H](C)CO)C(=O)c2cc(NC(=O)C3CCCCC3)ccc2O1
